# Env fusion inh = HIV envelope-mediated fusion inhibition; HeLa-JRFL Env/CEM21 cell fusion, luciferase; hit rate 1.1% among 360,000; inhibition, % at 12.3 µM;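 active = mean replicate inhibition score of at least 50 and every replicate individually at or above 50; inconclusive = only one of the two criteria met; inactive = mean below 50 and not all replicates reaching 50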;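 also: 0% = plate neutral controls and 100% = maraviroc near 300 nM; one replicate is shown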
# MT1-MMP act inh = blocks activation of human MT1-MMP | HT1080 RFP-PRO-GFP cells, GFP/RFP ratio fluorescence, overnight; percent of plate control window, DMSO zero | GFP/RFP ratio change, % at 20 µM | hit rate 0.061% among 360,000 | AID 651647;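 active = GFP/RFP ratio change of at least 30% with cell ATP level not reduced by more than half and red fluorescence within 50% of control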; also: strong numbers were not always called active
#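 Assay system – RFP-PRO-GFP reporter HT1080 cells · Compound dosing – single dose of 20 µM compound, 1% DMSO final · Incubation – overnight compound exposure at 37 °C · Measure – GFP/RFP fluorescence ratio · Benchmarks – DMSO wells and RFP-L50D-GFP cells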
# MT1-MMP act inh RFP = recorded beside MT1-MMP act inh, whose call it bears; RFP signal change, %; measured here: RFP expression control read;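 0 = vehicle wells; hits needed this value within 50% of zero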
# * hit, by the source's call; ? = inconclusive. Not all compounds are listed (hit frequency here may not be typical).
SMILES,Env fusion inh,MT1-MMP act inh,MT1-MMP act inh RFP
O=C(NCc1ccccc1)C(CCc1ccccc1)n1c(=O)c(-c2ccccc2)nc2ccccc21 (stereo not given),22,-17,-8
COc1nnc(-c2ccc(N3CCCCC3)c(NC(=O)COc3ccccc3)c2)c2ccccc12,4,1,0
O=S(c1cc(Cl)cc(Cl)c1O)c1cc(Cl)cc(Cl)c1O,-22,6,4
O=C(Nc1ccc2c(c1)OCCO2)C(C1CC1)n1c(=O)c(-c2cc3ccccc3[nH]2)nc2ccccc21 (stereo not given),-5,-5,-6
CN(Cc1ccccc1)C(=O)COC(=O)Cc1ccc(Cl)cc1,-9,-1,3
O=C(O)/C=C/C(=O)Nc1cccc2c1-c1ccccc1C2=O,0,4,1
CN(Cc1ccccc1)C(=O)C(=O)c1ccccc1,-14,-4,1
COC(=O)c1ccccc1CC1Cc2cc3c(cc2C1=O)CCC3 (stereo not given),-41,-5,-3
Clc1cccc(-c2cccc3nccn23)c1Cl,-3,-8,-7
CC1=C(C(=O)N2CCCCCC2)CC(CC(=O)NCCc2ccccn2)C(=O)N1Cc1ccc(F)cc1 (stereo not given),-9,6,3
CC1CC=C(O)C12OCC(C)(C)CO2 (stereo not given),-3,-6,4
O=S1(=O)CC(N2CCSCC2)CN1Cc1cn(Cc2ccccc2)nn1 (stereo not given),-22,4,-1
COc1ccc(C(=O)c2[nH]c(N)c(C(=O)NCCc3c[nH]c4ccccc34)c2-c2c(F)cccc2Cl)cc1,-4,1,-8
COC(=O)[C@@]12C[C@@H](CC(=O)N3CCCC3)C(=O)N(CCc3ccc(OC)c(OC)c3)C1=CCC(C)(C)C2,-6,5,7
CC(=O)N1CCN(C(c2ccccc2)c2nnnn2C(C)(C)C)CC1 (stereo not given),-12,2,8
CNC(=O)C[C@@H]1CC[C@@H]2[C@H](COC[C@H](O)CN2S(=O)(=O)c2ccccc2Cl)O1,?,0,1
CCC(c1nnnn1-c1ccc2c(c1)OCCO2)N1CCN(C(C)=O)CC1 (stereo not given),-30,5,8
COc1ccc([C@H]2C[C@@H](n3cc(C4CC4)nn3)[C@H](O)CN2C(=O)c2cccs2)cc1,14,0,5
O=S(=O)(c1ccccc1)C1CC1(c1ccccc1)c1ccccc1 (stereo not given),1,4,-3
COC[C@H]1CCCN1c1ccc2c(c1)O[C@H](COCc1ccccc1)CN([C@H](C)c1ccccc1)S2(=O)=O,26,-3,-8
CN1CCN(c2ccc3c(c2)OC[C@@H](Cc2ccccc2)NS3(=O)=O)CC1,-24,2,0
Cc1ccc(S(=O)(=O)N2CCC(=O)N([C@H](COCc3ccccc3)C(C)C)CC2)cc1,3,5,-4
CC(=O)Nc1cccc(-c2nc3ccccc3n2C(C)C(=O)NC(C)(C)C)c1 (stereo not given),32,-2,-1
COC(=O)[C@@]1(C(C)C)N=C(c2cc(OC)c(OC)c(OC)c2)[C@]2(O1)C(=O)Nc1ccccc12,-2,4,2
Cc1ccc(S(=O)(=O)N2[C@H](CC(=O)c3ccc(Cl)c(Cl)c3)OC[C@@H]2C(C)C)cc1,-12,3,-3
CCCN(C)C1CN(Cc2cn(Cc3cc(C)cc(C)c3)nn2)S(=O)(=O)C1 (stereo not given),6,4,6
CC1(C(=O)Nc2ccc3c(c2)OCCO3)CN(S(C)(=O)=O)CC(=O)N1CC(F)(F)F (stereo not given),-10,9,12
COc1cccc(Cn2cnc(-c3ccccc3OC)c2-c2cccs2)c1,-8,4,-7
CC(C)(C)OC(=O)N1CCC[C@H]1C(=O)N1CCC[C@H]1C(=O)NCc1ccc(F)cc1F,8,4,-1
CCCc1c(-c2ccccc2)ncn1Cc1ccccc1OC,2,3,-14
COc1cccc(NC(=O)COC(=O)C2=NN(c3ccccc3)C(=O)CC2)c1,18,1,6
COc1ccc(C(=O)Nc2c(F)c(F)c(F)c(F)c2F)cc1OC,15,2,2
COC(=O)c1ccc(CNC(=O)C(C)N=C2NS(=O)(=O)c3ccccc32)cc1 (stereo not given),13,-1,-6
Cc1cc(C)c2c(=N)c3ccccc3n(CCCCCCCCn3c4ccccc4c(=N)c4c(C)cc(C)nc43)c2n1,-4,0,-5
CCOc1ncccc1C(=O)Nc1ccc(OC)c(S(=O)(=O)N2CCOCC2)c1,-2,-1,-2
COc1cc(C2c3cc4c(cc3OC(Nc3ccc(C(=O)O)cc3)C2C)OCO4)cc(OC)c1OC (stereo not given),14,17,0
CCOC(=O)Nc1ccc2c(c1)C(=NO)c1ccccc1-2,-44,3,-3
COC(=O)C1C=CC(OC2OC(COC(C)=O)C(OC(C)=O)C(OC(C)=O)C2OC(C)=O)n2c(=O)n(-c3ccccc3)c(=O)n21 (stereo not given),-17,-7,4
COC(=O)[C@@]12C[C@@H](CC(=O)NCC34CC5CC(CC(C5)C3)C4)C(=O)N(Cc3ccc4c(c3)OCO4)C1=CCC(C)(C)C2,22,-15,-19
COC(=O)c1ccc2nc(-c3ccc(F)cc3)c(CC3CCCCC3)n2c1,-30,-7,-2
Cc1ccc(C)c(C(=O)COC(=O)c2c(-c3ccccc3)noc2C)c1,3,-1,-2
O=C1NC[C@@H](CCCCN2CCN(CC3CCCCC3)C(=O)C2=O)N(CC2CCCCC2)C1=O,-24,3,1
NC1(C(=O)O)CSSC1,-49,-7,14
CC/C(=C\c1ccc(N(C)C)cc1)c1ccncc1,-12,-7,-7
COc1ccc(OC)c(CN2C(=O)CSCC2(C)C(=O)Nc2c(C)cccc2C)c1 (stereo not given),-3,10,5
O=C1NC[C@@H]2CCCN2C1=O,6,8,2
COC(=O)c1sc(S(=O)(=O)N2CCN(c3ccccc3F)CC2)c(C(=O)OC)c1C,-13,0,0
C[C@H]1COc2cc(N3CCN(Cc4ccccc4F)CC3)ccc2S(=O)(=O)N1,1,7,1
COC(=O)[C@@]1(Cc2ccc(F)cc2)[C@H]2c3cc(C(=O)N(C)C)n(CCO)c3C[C@H]2CN1C(=O)c1ccccc1,80*,5,2
CN1CCN(c2ncnc3c2ncn3[C@H]2CN(Cc3cccnc3)C[C@@H](CO)O2)CC1,17,-1,3
CCOC(=O)c1sc2nc(OCCN3CCOCC3)cc(C)c2c1N,-8,6,2
COC(=O)[C@]12CCCCC=C1N(Cc1ccc(Cl)cc1Cl)C(=O)[C@H](CC(=O)N1CCN(C(=O)C3CC3)CC1)C2,-4,1,-5
CCC(c1nc2ccccc2[nH]1)n1c(-c2ccc3ccccc3c2)nc2ccccc21 (stereo not given),-155,-12,-8
CC1CCCC(=NNc2ccc3ccccc3n2)C1 (stereo not given),-72,-1,6
CC1(c2nnnn2C2CCCCC2)CCC(=O)N1Cc1ccc2c(c1)OCO2 (stereo not given),2,1,3
CCOC(=O)C1=CCN(S(=O)(=O)c2ccccc2C)C1c1cccc(Cl)c1 (stereo not given),13,1,-3
CCc1ccc(N2C=C(C(=O)OC)C(c3ccc(OC)cc3)C(C#N)=C2N)cc1 (stereo not given),30,6,-1
CCCCc1c(-c2ccccc2OC)ncn1CCc1ccc(OC)cc1,-7,5,-13
Cc1ccccc1Nc1nc(N)nc(COC(=O)[C@@H](NC(=O)c2ccco2)C(C)C)n1,1,4,4
CCC(C)[C@H]1CNC(=O)C(=O)N1CC(C)(C)C (stereo not given in full),-2,9,5
# Other structures:
SMILES,Env fusion inh,MT1-MMP act inh,MT1-MMP act inh RFP
COC(=O)C(CCC(C(=O)OC)N1C(=O)c2ccccc2C1=O)N1C(=O)c2ccccc2C1=O (stereo not given),-23,1,3
CC(C)C[C@H]1CNC(=O)C(=O)N1C[C@@H]1CCCN1C[C@H](Cc1ccccc1)N1C[C@H](CC(C)C)N(CC2CCCCCC2)C(=O)C1=O,-37,2,1
CC1=C(C(=O)N2CCCCCC2)CC(CC(=O)NCCCCc2ccccc2)C(=O)N1CCC1=CCCCC1 (stereo not given),?,-7,-17
CSc1ncnc2c1ncn2CC(=O)C1CCC2C3CCC4=CC(=O)CCC4(C)C3CCC12C (stereo not given),40,4,-26
CC1(C(=O)Nc2ccc3c(c2)OCCO3)CSCC(=O)N1CCOc1ccccc1 (stereo not given),24,8,1
COc1ccc(-c2oc3c(c2C(=O)OCCCO)C(OCCCCCO)CCC3)cc1 (stereo not given),15,-1,1
COC(=O)[C@]12CCCCC=C1N(Cc1cccc3ccccc13)C(=O)[C@H](CC(=O)N1CCCCC1)C2,-5,-13,-14
CC(C)(C)NC(=O)C(c1ccnc2ccccc12)n1c(=O)c(-c2ccco2)nc2ccccc21 (stereo not given),1,-10,4
COC(=O)C[C@@H]1CC[C@@H](NC(=O)Nc2cc(F)ccc2F)[C@@H](CO)O1,38,5,3
CCOC(=O)C1CCCN(C(=O)c2ccc(SC(F)(F)F)cc2)CC1 (stereo not given),28,2,-2
O=S1(=O)N[C@@H](Cc2ccccc2)COc2cccc(N3CCN(Cc4ccccc4F)CC3)c21,-8,6,-8
CCOC(=O)[C@]12Cc3c(cc(OC)c(OC)c3OC)[C@H]1N(Cc1ccccc1)C(=O)c1cc(F)c(F)cc12,9,-10,-13
Cc1nnc2c3ccccc3ccn12,-5,0,6
CCNC(=O)C[C@@H]1CC[C@@H]2NC[C@@H](O)COC[C@H]2O1,13,-2,9
N#Cc1ccc(C=NN2CCCCCC2)cc1,-66,3,7
O=C1CC(SC(=S)C2CCCC2=O)C(=O)N1 (stereo not given),-14,-4,12
O=C(CCN1CCCCC1)c1cccc(Cl)c1,1,-1,2
Cn1cc([C@]2(O)C(=O)Nc3ccc(Br)cc32)c2ccccc21,12,6,7
COC1=C(Br)C(=O)c2ncccc2C1=O,-8,3,5
C[C@H](NC(=O)C[C@@H]1CC[C@H]2[C@@H](COC[C@H](O)CN2Cc2ccc(C(F)(F)F)cc2)O1)c1ccccc1,9,5,1
C[C@H](NC(=O)[C@@H]1CCCN1C(=O)[C@@H]1CCCN1C(=O)c1ccc(Cl)cc1)c1ccccc1,-24,2,2
COc1ccc(-c2ccc3c(c2)c(Sc2ccccc2)c(-c2ccccc2)n3C)cn1,-4,-1,-3
CC1=NN(C(=O)c2ccncc2)C(=O)C1N=Nc1ccc2ccccc2c1 (stereo not given),-113,14,7
Cn1c(OCC2CCCO2)nc2cc(-c3ccccc3)sc2c1=O (stereo not given),-32,-4,-2
COC1C=CC=C(C)C(=O)NC2=CC(=O)C(N)=C(CC(C)CC(OC)C(O)C(C)C=C(C)C1OC(N)=O)C2=O (stereo not given),29,4,-20
CC12CCC3c4ccc(O)cc4CCC3C1CC(=NO)C2O (stereo not given),4,-4,-4
C=CCn1nc(C(=O)N2CCOCC2)cc1-c1sc(NC(=O)c2ccccc2)nc1C,29,-7,-23
COC(=O)c1cc(=O)nc(NNC(C)=O)s1,23,2,4
CCCCCCCCN1C(=O)[C@H](CC(=O)NCC2CCCCC2)C[C@@]2(C(=O)OCC)CCCC=C12,21,-14,-20
CCC1(O)C(=O)OCc2c1cc1n(c2=O)Cc2cc3c(N)cccc3nc2-1 (stereo not given),68*,1,-1

# By substructure, the compounds so far containing a Cl atom
SMILES,Env fusion inh,MT1-MMP act inh,MT1-MMP act inh RFP
O=S(c1cc(Cl)cc(Cl)c1O)c1cc(Cl)cc(Cl)c1O,-22,6,4
CN(Cc1ccccc1)C(=O)COC(=O)Cc1ccc(Cl)cc1,-9,-1,3
Clc1cccc(-c2cccc3nccn23)c1Cl,-3,-8,-7
COc1ccc(C(=O)c2[nH]c(N)c(C(=O)NCCc3c[nH]c4ccccc34)c2-c2c(F)cccc2Cl)cc1,-4,1,-8
CNC(=O)C[C@@H]1CC[C@@H]2[C@H](COC[C@H](O)CN2S(=O)(=O)c2ccccc2Cl)O1,?,0,1
Cc1ccc(S(=O)(=O)N2[C@H](CC(=O)c3ccc(Cl)c(Cl)c3)OC[C@@H]2C(C)C)cc1,-12,3,-3
COC(=O)[C@]12CCCCC=C1N(Cc1ccc(Cl)cc1Cl)C(=O)[C@H](CC(=O)N1CCN(C(=O)C3CC3)CC1)C2,-4,1,-5
CCOC(=O)C1=CCN(S(=O)(=O)c2ccccc2C)C1c1cccc(Cl)c1 (stereo not given),13,1,-3
O=C(CCN1CCCCC1)c1cccc(Cl)c1,1,-1,2
C[C@H](NC(=O)[C@@H]1CCCN1C(=O)[C@@H]1CCCN1C(=O)c1ccc(Cl)cc1)c1ccccc1,-24,2,2
